Calb biofilm kill – clotrimazole potentiators killing C. albicans biofilm, primary screen, 4-compound mixtures | AID 1242, 2008 | C. albicans biofilm persisters + clotrimazole, fluorescence viability; primary screen in compound mixtures of four per well | inhibition, % at 7.6 µM | actives 0.02% (n = 120,000);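 active = inhibition above 30.3% in the primary screen of four-compound pools, then above 30% when the compound was retested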;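 note: compounds exposed to preformed 24 h biofilms for 48 h; the number belongs to the whole pool; some results filed as inactive read as strong as hits; inactives centre near 12; 0% = biofilm with clotrimazole alone and 100% = kill control; retested singly at about 60 µM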
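Test system: C. albicans CAF4-2 wild-type biofilms; buffer or medium: RPMI/MOPS medium, pH 7.0; schedule: 24 h biofilm formation, then 48 h compound exposure, 37 °C; detection: Alamar Blue fluorescence; measure: percent inhibition of biofilm viability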
* marks the source's active call; other numbers are inactive results.

SMILES	Calb biofilm kill
NC(=O)CSc1nc2scc(-c3ccc(Cl)cc3)c2c(=O)n1Cc1ccccc1	11
O=C(Cn1nc(-c2ccc3c(c2)OCCO3)ccc1=O)Nc1cccc(NC(=O)c2ccccn2)c1	11
CCCN1CCN(c2ncnc3scc(C4COc5ccccc5O4)c23)CC1 (stereo unspecified)	6
COc1ccc(CNC(=S)Nc2ccc(F)c(Cl)c2)cc1	1
Cc1c(Cl)c([N+](=O)[O-])nn1CC(=O)Nc1ccc2c(c1)OCO2	14
CCCc1cnc(NCCNCC(O)COc2ccc(Cl)c(Cl)c2)nc1 (stereo unspecified)	4
Cc1ccc(-c2csc(N3C(=N)SCC3=O)n2)cc1	20
O=C(O)/C=C\c1cc2c(cc1[N+](=O)[O-])OCO2	19
COC(=O)C1=C(C)NC2=C(C(=O)CC(C)(C)C2)C1c1cnn(C)c1C (stereo unspecified)	4
CC(=O)c1sc2c(c1OC(=O)c1ccc(Cl)cc1Cl)c(=O)n(-c1ccccc1)c(=S)n2-c1ccccc1	12
NNC(=O)Cc1csc(-c2ccccc2)n1	23
Cc1[nH]n(-c2ccccc2)c(=O)c1C(c1cccc([N+](=O)[O-])c1)c1c(C)[nH]n(-c2ccccc2)c1=O	15

Filtered by structure: the compounds so far containing four or more nitrogen atoms
SMILES	Calb biofilm kill
O=C(Cn1nc(-c2ccc3c(c2)OCCO3)ccc1=O)Nc1cccc(NC(=O)c2ccccn2)c1	11
CCCN1CCN(c2ncnc3scc(C4COc5ccccc5O4)c23)CC1 (stereo unspecified)	6
Cc1c(Cl)c([N+](=O)[O-])nn1CC(=O)Nc1ccc2c(c1)OCO2	14
CCCc1cnc(NCCNCC(O)COc2ccc(Cl)c(Cl)c2)nc1 (stereo unspecified)	4
Cc1[nH]n(-c2ccccc2)c(=O)c1C(c1cccc([N+](=O)[O-])c1)c1c(C)[nH]n(-c2ccccc2)c1=O	15

New compounds follow
SMILES	Calb biofilm kill
O=C(NCc1cccnc1)/C(=C\c1ccc(-c2ccc(Cl)c(Cl)c2)o1)S(=O)(=O)c1ccccc1	21
O=c1c2ccccc2[nH]c(=S)n1Cc1cccs1	15
Cc1ccc(S(=O)(=O)n2nccc2-c2c(-c3ccc(Cl)cc3)noc2C)cc1	24
COC(=O)[C@@]1(Cc2ccc(F)cc2)[C@H]2c3cc(C(=O)N4CCCC4)n(CCO)c3C[C@H]2CN1C(=O)c1ccccc1	5
C(=C\c1ccccc1)/C=N/N1CCN(Cc2ccccc2)CC1	14
O=C(COc1ccc(/C=N/NC(=O)CSCc2ccc([N+](=O)[O-])cc2)cc1)NCc1ccco1	0
CNC(=S)N/N=C/c1ccco1	17
O=C(NNC(=O)c1cccs1)c1ccncc1	15
CCOC(=O)c1sc(SC)c2c1CCCC2=O	14
COc1cccc2sc(NNC(=O)COc3ccccc3)nc12	13
CN(/N=C/c1cc([N+](=O)[O-])ccc1O)c1ccccc1	12
Cc1cc(C)n(C(=O)c2ccc(C)c(F)c2F)n1	-2
Cc1ccc(C)c(/C=N/Nc2ccccn2)c1	8
COC(=O)c1ccc(N2C(=O)C3CC(C)=C(C)CC3C2=O)cc1 (stereo unspecified)	11
COc1ccc(C2CC(c3ccc4ccccc4c3)=NN2C(=O)CN2CCC(C(N)=O)CC2)cc1 (stereo unspecified)	7
N/C(=N\OC(=O)c1cccc(Cn2cc(C(F)(F)F)ccc2=O)c1)c1ccc(Cl)cc1	13
CC(C)[C@H](NC(=O)c1ccccc1)C(=O)OCC(=O)N1CCN(C(=O)c2ccco2)CC1	14
CCN(CC)S(=O)(=O)c1cccc(NC(=O)c2cncc(Br)c2)c1	0
CC12CCC(C(=O)N3CCC(Cc4ccccc4)CC3)(C(=O)C1=O)C2(C)C (stereo unspecified)	-7
CCSC1=NCCN1S(=O)(=O)c1ccc(NC(C)=O)cc1	24
CC(OCC(O)CN(C)Cc1nc2ccccc2c(=O)[nH]1)c1ccc(Cl)cc1 (stereo unspecified)	12
O=C1c2cccc3cccc(c23)C(=O)N1CCCc1n[nH]c(=S)n1-c1ccccc1	20
NC(=O)CN1CCN(S(=O)(=O)c2ccc(Br)cc2)CC1	13
COc1ccc(OCC(=O)Nc2ccccc2C(=O)NC(C)C)cc1	4

Structures listed so far containing an aryl thioether with sulfur outside any ring (two):
SMILES	Calb biofilm kill
NC(=O)CSc1nc2scc(-c3ccc(Cl)cc3)c2c(=O)n1Cc1ccccc1	11
CCOC(=O)c1sc(SC)c2c1CCCC2=O	14

Carrying on.
SMILES	Calb biofilm kill
O=C1NC(=O)/C(=C\c2ccc(Cl)nc2)S1	13
Cc1cccc(NC(=O)C(c2ccccc2Cl)N2CCOCC2)c1 (stereo unspecified)	2
O=C1c2cccc3cccc(c23)C(=O)N1Cc1ccccc1	22
O=C(NCC1CCCO1)c1cncc(Br)c1 (stereo unspecified)	-4
CN(CCO)c1cc(N2CCC3(CC2)OCCO3)c2nonc2c1[N+](=O)[O-]	13
COc1cc(/C=C(/C#N)C(=O)Nc2ccccc2)c(Br)cc1OCc1ccc(C(=O)O)cc1	16
CC(C)Oc1ccc(C2CC(=O)N(c3ccc(C(=O)O)cc3)C2=O)cc1 (stereo unspecified)	17
Cc1nc(C/C(=N\N)c2ccc(O)cc2O)cs1	0
Cc1nc2ccccc2nc(=O)c1NNc1ccc([N+](=O)[O-])cc1	12
O=C(NC1CCS(=O)(=O)C1)C1CCCN(S(=O)(=O)c2ccc(Cl)cc2)C1 (stereo unspecified)	21
Cc1nc(N2CCCCC2)sc1C(=O)c1ccc(Cl)c([N+](=O)[O-])c1	5
CC(C)(C)c1ccc(OCCNC(=S)NC(=O)c2cccnc2)cc1	2
COc1cccc(C(=O)C2CCCN(Cc3cn(C)nc3-c3ccccc3)C2)c1 (stereo unspecified)	9
CCCc1c2ccccc2nc2ccccc12	15
CCOC(=O)C1(Cc2ccccc2)CCCN(CCCn2cccn2)C1 (stereo unspecified)	19
COc1ccc(CCN2C(=O)CC(N3CCC(C(N)=O)CC3)C2=O)cc1OC (stereo unspecified)	11
COc1cccc(NC(=O)c2cc3c(=O)n4ccccc4nc3n(CC(C)C)c2=N)c1	17
CC1=NCCN1S(=O)(=O)c1cccc([N+](=O)[O-])c1	11
Cc1ccc(OCC(=O)NNC(=S)NCc2ccccc2)cc1	22
Cc1ccc(C)c(N(CC(=O)Nc2ccccc2C(=O)NCc2ccco2)S(=O)(=O)c2ccccc2)c1	14
CN(CCO)C(=O)C(c1ccccc1)c1ccccc1	34
CCc1nnc(NC(=O)CSc2nc3cccnc3n2Cc2ccccc2)s1	9
CCc1ccc(OCC(=O)N/N=C(\C)c2ccc(OC(F)F)cc2)cc1	14
Cc1[nH]n(-c2ccccc2)c(=O)c1C=NCc1ccncc1	26

Arranged by formula weight (high to low): some entries from above
SMILES	Calb biofilm kill
O=C1c2cccc3cccc(c23)C(=O)N1CCCc1n[nH]c(=S)n1-c1ccccc1	20
CCCN1CCN(c2ncnc3scc(C4COc5ccccc5O4)c23)CC1 (stereo unspecified)	6
COc1ccc(OCC(=O)Nc2ccccc2C(=O)NC(C)C)cc1	4

(listing goes on)
SMILES	Calb biofilm kill
COC(=O)c1cccc(NC(=O)CCc2cc(OC)c(OC)c(OC)c2)c1	10
CCOC(=O)c1ccc(NC(=O)C(=O)NCC2(c3ccc(OC)cc3)CCOCC2)cc1	23
COC(=O)Cn1c(=NC(=O)C2COc3ccccc3O2)sc2cc(S(N)(=O)=O)ccc21 (stereo unspecified)	2
CCCOc1ccc(C(O)CCNC(CC(=O)O)c2ccccc2)cc1 (stereo unspecified)	12
CC(C)c1ccccc1NC(=O)Cn1c(-c2ccccc2Cl)nc2ccccc21	-1
CC(C)C[C@H](NC(=O)c1nc[nH]c1C(=O)N(C)Cc1ccccc1)C(=O)OCc1ccccc1	14
CC(Cc1ccccc1)C(=O)N1CCN(C)CC1 (stereo unspecified)	13
CNC(=O)Nc1ccc(C2SCCS2)cc1	16
N#CC(Cc1ccc(OC(F)F)cc1)c1nc2ccccc2[nH]1 (stereo unspecified)	5
CCn1c(SCC(N)=O)nnc1C(C)C	12
CC(C)(C)NC(=O)CN1C(=O)/C(=C/c2ccccc2)SC1=S	-1
O=C(Nc1ccc(S(=O)(=O)N2CCOCC2)cc1)c1ccc2ncsc2c1	16
Cc1cc(C)c2c(=O)[nH]c(SCC(=O)c3ccc(F)c(C)c3)nc2n1	15
COc1ccccc1-c1nnc(SC(C)C(=O)O)n1-c1ccccc1 (stereo unspecified)	13
Cc1c(NC(=O)CN2C(=O)NC(C)(c3ccccc3Cl)C2=O)c(=O)n(-c2ccccc2)n1C (stereo unspecified)	10
CCCc1cc(=O)[nH]c(SCC(=O)c2ccc3c(c2)NC(=O)CO3)n1	28
CC1(C)CC2CC(C)(CN2C(=S)Nc2ccccc2)C1 (stereo unspecified)	11
COc1ccc(C(=O)Oc2cccc3cccnc23)cc1[N+](=O)[O-]	21
COc1cc(C2c3c([nH]c(=O)[nH]c3=O)Nc3ccc4ccccc4c32)ccc1O (stereo unspecified)	5
CCc1cc(C(=O)O)c(NC(=O)c2cc(OC)c(OC)c(OC)c2)s1	-2
O=C1N/C(=N\S(=O)(=O)Cc2ccccc2)S/C1=C/c1cc([N+](=O)[O-])ccc1O	21
CCCC(=O)N(CCN(C(=O)CCC)c1ccccc1)c1ccccc1	13
CSc1ccc(C2CC(=O)Nc3c2c(=O)n(C)c(=O)n3C)cc1 (stereo unspecified)	10
N#Cc1cnn(-c2cccc(Cl)c2)c1-n1cccc1	18
Cc1ccc(-n2c(C)cc(/C=N/NC(=O)CC3(C)OCCO3)c2C)cc1	6
COc1ccccc1C(=O)Nc1ccc(N2CCN(C(C)=O)CC2)cc1	-9
CCCN(C(=O)c1cc(S(=O)(=O)N2CCCCC2)ccc1Cl)C1CCS(=O)(=O)C1 (stereo unspecified)	17
Cc1cccc(Nc2nc3c(S(=O)(=O)c4ccccc4)nnn3c3ccccc23)c1C	9
COc1cc(OC)c(OC)cc1/C=C/c1cc(C(=O)O)c2ccccc2n1	14
CCC(c1nnc(SCC(=O)Nc2cc(Cl)ccc2C#N)n1C1CCCCC1)N(C)C (stereo unspecified)	8
COC(=O)c1sccc1NC(=O)COc1ccccc1Cl	11
CSc1nc2ccccc2n1Cc1cccc([N+](=O)[O-])c1	8
COc1ccc(S(=O)(=O)Nc2ccc3c(c2)n(C)c(=O)n3C)cc1	12
C(=N\Nc1nc2ccccc2[nH]1)/c1ccccc1	18
Cc1ccc(NC(=O)CSc2nnnn2C)cc1S(=O)(=O)N(C)C	8
CCOC(=O)/C(=N\Nc1ccc(Br)cc1)N1CCN(c2ccccc2OC)CC1	11
O=C(NC(=S)N1CCN(c2nc(-c3ccccc3)cs2)CC1)c1cncc(Br)c1	5
COc1ccccc1-c1nc2cc3ccccc3cc2nc1-c1ccccc1	19
O=C(O)C1CSC2(c3ccc(F)cc3)CCC(=O)N12 (stereo unspecified)	4
CSc1ncc(CN2CCN(C3CCCCC3)C(CCO)C2)cn1 (stereo unspecified)	18
COc1ccccc1/C=C/C=N/NC(=O)CC1C(=O)NN=C1C (stereo unspecified)	7
O=C(NCN1C(=O)C2C3C=CC(C3)C2C1=O)Nc1ccccc1O (stereo unspecified)	11
Cc1ccc(SCc2ccc(C(=O)N3CCCCC3)cc2)cc1	11
CN=C(Nc1cccc(Cl)c1)SC1CC(=O)N(c2ccc(OC)cc2)C1=O (stereo unspecified)	-8
Cc1ccc(-n2nnnc2-c2cccnc2)cc1	15
COc1ccc(C2Nc3ccccc3C(=O)N2NC(=O)c2ccccc2)cc1OC (stereo unspecified)	12
COc1ccc(/C=C2\N=C(C)OC2=O)cc1[N+](=O)[O-]	11
CC(=O)Nc1ccc2nc(CN3CCN(CC=C(C)C)C(CCO)C3)ccc2c1 (stereo unspecified)	16
N/C(=N\O)c1ccc(N2CCN(c3ncccc3C(F)(F)F)CC2)nc1	13
CCCN1C(=O)/C(=C/c2ccc3c(c2)OCO3)NC1=S	10
CC1=NC(C)(C)Cc2c(C)cccc21	9
CNCCOc1ccc(Cl)c(Cl)c1	22
CCOC(=O)NC(NCc1ccccc1)(C(F)(F)F)C(F)(F)F	3
O=C(CNC(=O)c1ccccc1F)OCC(=O)N1CCCc2ccccc21	12
CC[C@@H](C)[C@@H](C(=O)N1CCN(C(=O)OC(C)(C)C)CC1)n1cc(CCCCNC(=O)OC(C)(C)C)nn1	15
O=C(NC(=O)c1ccc(Cl)cc1)OC1CCCCC1	14
O=C(Cc1nc2ccccc2[nH]1)N/N=C/c1ccccc1	23
Cc1nn(Cc2ccc(F)cc2)c2sc(C(=O)Nc3ccccc3N3CCOCC3)cc12	15
COc1ccccc1N(CC(=O)N(c1ccccc1)C(C)C)S(=O)(=O)c1cccs1	13
CC1(C)CC(=O)C2=C(C1)OC(N)=C([N+](=O)[O-])C2c1ccc(C#N)s1 (stereo unspecified)	9

Next part.
SMILES	Calb biofilm kill
O=C(O)c1cccc(Nc2cc(Cl)c3nonc3c2[N+](=O)[O-])c1	-3
C/C(=N\O)c1ccn(S(=O)(=O)c2ccc(Cl)cc2)c1	14
N#C/C(=C\c1ccccc1)C(=O)N(c1ccccn1)C1CCCCC1	14
CCc1ccc(NC(=S)N2CCN(c3cccc(OC)c3)CC2)cc1	9
CCOc1ccc(-c2[nH]ncc2-c2csc(C)n2)c(O)c1	16

Given in CSV form: entries from further up
SMILES,Calb biofilm kill
N#C/C(=C\c1ccccc1)C(=O)N(c1ccccn1)C1CCCCC1,14
O=C(O)c1cccc(Nc2cc(Cl)c3nonc3c2[N+](=O)[O-])c1,-3
C/C(=N\O)c1ccn(S(=O)(=O)c2ccc(Cl)cc2)c1,14
CCc1ccc(NC(=S)N2CCN(c3cccc(OC)c3)CC2)cc1,9

The list is partial, so the mix of outcomes need not match the whole.
